From PubChem BioAssay
KCNQ2 pot: potentiators of rat KCNQ2 potassium channel; 310,000 compounds, 0.54% hits; Potassium voltage-gated channel subfamily KQT member 2 (Rattus norvegicus), O88943; B-score at 10 µM; CHO-K1 KCNQ2, FluxOR thallium flux fluorescence; stronger effect = higher value;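 active = fluorescence ratio B-score at least 3 SD of library B-scores, with initial fluorescence B-score within 3 SD, cut at about 5.3 in these data; same plate scores as AID 2156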;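 also: B-score of peak minus minimum over baseline fluorescence ratio after K+ and Tl+ stimulus; positive B-score means potentiation of KCNQ2 with more thallium influx and brighter signal; only the inactives scoring about 0 or higher are listed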
Target sequence (O88943 whole entry, looked up): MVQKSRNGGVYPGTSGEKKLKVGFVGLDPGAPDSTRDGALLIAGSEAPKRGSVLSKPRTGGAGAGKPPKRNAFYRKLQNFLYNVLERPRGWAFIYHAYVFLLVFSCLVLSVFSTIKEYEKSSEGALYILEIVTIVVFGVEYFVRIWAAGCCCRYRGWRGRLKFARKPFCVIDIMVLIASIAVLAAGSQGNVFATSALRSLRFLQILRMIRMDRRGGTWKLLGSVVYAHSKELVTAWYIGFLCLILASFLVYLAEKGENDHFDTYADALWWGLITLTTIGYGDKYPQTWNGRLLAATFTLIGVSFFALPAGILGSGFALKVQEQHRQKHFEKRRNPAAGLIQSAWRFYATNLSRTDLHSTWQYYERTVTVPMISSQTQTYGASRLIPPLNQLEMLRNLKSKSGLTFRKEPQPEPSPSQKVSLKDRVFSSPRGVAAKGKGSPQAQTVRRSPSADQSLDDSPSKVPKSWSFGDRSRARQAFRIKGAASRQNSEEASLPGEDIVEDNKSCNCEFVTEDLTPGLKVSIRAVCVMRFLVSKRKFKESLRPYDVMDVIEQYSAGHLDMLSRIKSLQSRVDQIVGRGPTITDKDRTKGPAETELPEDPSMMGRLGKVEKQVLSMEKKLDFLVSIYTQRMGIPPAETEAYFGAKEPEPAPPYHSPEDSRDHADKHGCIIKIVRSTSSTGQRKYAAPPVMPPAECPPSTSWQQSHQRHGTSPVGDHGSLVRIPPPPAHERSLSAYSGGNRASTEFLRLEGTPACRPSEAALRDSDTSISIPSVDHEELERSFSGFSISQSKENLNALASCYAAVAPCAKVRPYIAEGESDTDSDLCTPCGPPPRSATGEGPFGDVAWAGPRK
KCNQ2 pot baseline: further read-out of KCNQ2 pot, marked with its call; B-score; compound at 10 µM; measured here: initial fluorescence intensity artifact check;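 brightness before thallium and not channel activity; 0 = typical well and far values either way flag optical interference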
* = called active by the depositor. Only part of the results is shown. The share of hits here may be higher or lower than overall.

SMILES	KCNQ2 pot	KCNQ2 pot baseline
COc1ccccc1N(C)S(=O)(=O)c1ccc(C(=O)OCC(=O)N2CCC2)cc1	0.93	-0.09
CCOc1cc(/C=N/NC(=O)C(C)Sc2ccccc2)ccc1O (stereo not given)	0.02	-0.12
CCOc1ccc(C(=O)NCc2ccc3c(c2)OCO3)cc1OCC	1.26	1.43
Cc1ccc(N2CC(C(=O)Nc3cccnc3)CC2=O)cc1C (stereo not given)	1.48	0.72
COCCN(C(=O)CN1CCN(S(=O)(=O)c2ccc(F)cc2)CC1)c1c(N)n(Cc2ccccc2)c(=O)[nH]c1=O	0.92	-0.01
O=C(NC1CCC(O)CC1)c1ccc2c(c1)S(=O)(=O)N=C1CCCCCN12 (stereo not given)	0.25	-0.22
O=C(O)c1ccccc1C(=O)c1ccc(Sc2ccc(Cl)cc2)c([N+](=O)[O-])c1	1.02	-1.03
O=C(O)c1ccc(N2C(=O)/C(=C/C=C/c3ccccc3)SC2=S)cc1	1.77	-0.28
COc1cc2[nH]c(=S)n(CCN3CCOCC3)c(=O)c2cc1OC	0.89	-0.54
Cn1nnnc1Sc1ncnc2scc(-c3ccc(F)cc3)c12	0.74	-1.11
O=C(CN1C(=O)NC(Cc2ccccc2)C1=O)Nc1ccc(F)cc1 (stereo not given)	0.14	-0.01
CC(C)(O)C#Cc1ccc(C(=O)NCCc2ccc(S(N)(=O)=O)cc2)cc1	2.25	0.06
O=C(Cc1ccc(F)cc1)NCC1CCCO1 (stereo not given)	0.32	3.24
CCSC1=N/C(=C\c2ccc3c(c2)OCO3)C(=O)S1	0.12	0.06
O=C1N=C(N2CCCC2)S/C1=C\c1cn[nH]c1-c1ccccc1	0.61	1.13
COc1ccc(NC(=S)NC(=O)c2ccccc2)cn1	1.24	0.03
O=C(Nc1ccc(Oc2ccccc2)cc1)C1CCN(c2ncccn2)CC1	0.89	0.03
CCCCc1nnc(NC(=O)CCS(=O)(=O)Cc2ccccc2)s1	0.01	-1.21
CCOC(=O)CSc1nc(C)cc(Oc2ccc(=O)n(C)n2)n1	0.79	-0.01
Nc1nc2ccccc2n1/N=C/c1ccc(-c2ccccc2)o1	1.74	-0.55
O=C(Nc1ccccc1C(=O)NCCN1CCOCC1)c1cccc([N+](=O)[O-])c1	1.76	-0.77
CN1CCN(c2ccccc2NC(=O)c2c(F)cccc2F)CC1	0.91	-1.39
COc1ccc(C(C(=O)NC2CCCC2)N(Cc2cccnc2)C(=O)Cc2cccs2)cc1OC (stereo not given)	0.1	0
O=S(=O)(Nc1ccccc1Br)c1cccs1	1.16	0.63
O=C(Nc1ccccc1Oc1cccnc1)C1CCCN(Cc2ccccc2O)C1 (stereo not given)	0.18	-0.68
Cc1ccc(/C=C/c2ccc3cccc(O)c3n2)s1	0.92	0.37
O=C(CN(C(=O)c1csnn1)c1ccc2c(c1)OCCO2)NCc1ccccc1	0.46	4.48
CC1(c2nnc(Cc3ccccc3)o2)CC(c2ccc(C#N)cc2)=NO1 (stereo not given)	0.66	1.08
O=C(O)C1=C[C@@H](c2csc3ccccc23)C[C@@H](OCCCCO)O1	0.88	-0.15
Cc1oncc1-c1cn2ccccc2n1	1.72	-1.53

Look-ups from above.
KCNQ2 pot baseline result of CCOC(=O)CSc1nc(C)cc(Oc2ccc(=O)n(C)n2)n1 reads -0.01
KCNQ2 pot baseline result of COc1ccc(NC(=S)NC(=O)c2ccccc2)cn1 reads 0.03

Other records:
SMILES	KCNQ2 pot	KCNQ2 pot baseline
CC1(C)Cc2nc3oc4c(N5CCOCC5)ncnc4c3cc2CO1	1.25	0.93
O=C(Nc1ccnn1C1CCN(CCCc2ccccc2)CC1)c1cccc(F)c1	1.05	2.88
CCCCN(C(=O)COC(=O)CSc1ccc([N+](=O)[O-])cc1)c1c(N)n(CCC)c(=O)[nH]c1=O	0.4	0.07
c1ccc(-c2cc3c(N4CCOCC4)ncnc3s2)cc1	0.23	-0.63
COc1ccc(Oc2nccc(-c3ccccc3)c2C#N)cc1	0.18	0.03
Cc1cc(C)cc(NC(=O)COC(=O)CCCC2=NS(=O)(=O)c3ccccc3N2)c1	0.49	0.6
Cc1ccc(NCC(O)C(O)C(O)CO)cc1C (stereo not given)	0.33	-0.88
CC1CCC(NC(=O)CCS(=O)(=O)c2ccc3c(c2)CC(C)N3C(=O)C2CC2)CC1 (stereo not given)	0.96	0.04
Cc1nnc(SCCn2c(N3CCN(C)CC3)nc3c2c(=O)[nH]c(=O)n3C)s1	1.38	-0.38
O=C(Cn1cccc1)NCc1cccs1	0.17	-1.75
CCCn1c(SCC(=O)Nc2ccc(C(=O)Nc3ccccc3OC)cc2)n[nH]c1=O	1.54	0.85
Cc1ccc(S(=O)(=O)N2CCCOC2CNC(=O)C(=O)NCc2ccccc2C)cc1 (stereo not given)	0.49	1.08
Cc1nc2cc(S(=O)(=O)N3CCC(C(=O)O)CC3)ccc2n1C1CCCC1	0.09	-0.24
Cc1cccc(OCCCCNCc2ccccc2)c1	0.71	-0.19
NS(=O)(=O)c1ccc(NC(=O)/C=C/c2cn(-c3ccccc3)nc2-c2cccc(Cl)c2)cc1	2.5	5.58

For reference, some entries already given:
SMILES	KCNQ2 pot	KCNQ2 pot baseline
CC1(C)Cc2nc3oc4c(N5CCOCC5)ncnc4c3cc2CO1	1.25	0.93
O=C(Nc1ccnn1C1CCN(CCCc2ccccc2)CC1)c1cccc(F)c1	1.05	2.88
CCCCN(C(=O)COC(=O)CSc1ccc([N+](=O)[O-])cc1)c1c(N)n(CCC)c(=O)[nH]c1=O	0.4	0.07
c1ccc(-c2cc3c(N4CCOCC4)ncnc3s2)cc1	0.23	-0.63
COc1ccc(Oc2nccc(-c3ccccc3)c2C#N)cc1	0.18	0.03

Other structures
SMILES	KCNQ2 pot	KCNQ2 pot baseline
CC[C@]1(c2cccc(C)c2)C(=O)N(C(=O)OC)N1C(=O)OC	0.32	0.33
O=C(CSc1nnc(-c2ccncc2)o1)Nc1cccc(F)c1	1.78	-2.39
CC(C)(C)c1ccc(Oc2ccc(NC(=O)CCCC(=O)O)cn2)cc1	2.95	-0.9
Cc1cccn2cc(CCNC(=O)c3ccco3)nc12	0.87	0.69
O=C(Nc1cccc(NC(=O)c2ccc(Br)o2)c1)c1ccccc1	2.61	-0.48
Cc1ccccc1S(=O)(=O)N(CC(O)CN1C(=O)NC(C)(C)C1=O)c1ccccc1 (stereo not given)	0.29	-1.61
N#Cc1cccc(S(=O)(=O)NCC(=O)NCCCc2ccccc2)c1	0.18	-0.63
COc1ccc(CCNC(=O)CSc2nccc(=O)[nH]2)cc1OC	0.45	-0.17
CCCNC(=O)Nc1ccccc1C(=O)Nc1ccc(OC)cc1	0.8	0.74
Fc1ccccc1N1CC(c2ccccc2)C(c2cccs2)=N1 (stereo not given)	1.61	-0.47
CCCCn1c(N)c(N(CC(C)C)C(=O)c2ccc(F)c(S(=O)(=O)N3CCOCC3)c2)c(=O)[nH]c1=O	0.55	1.92
COc1ccc(-c2cccc(C(=O)Nc3cccc(C(=O)O)c3)c2)cc1	0.83	1.64
C=C(C)COc1ccc2c(C)c(CC(=O)N3C[C@H]4C[C@@H](C3)c3cccc(=O)n3C4)c(=O)oc2c1C	0.4	0.32
N#Cc1cc(Oc2cccnc2)c(Oc2cccnc2)cc1C#N	0.01	-0.52
C=CCOc1ccc(/C=C/C(=O)OCC(=O)NCCCc2ccccc2)cc1	0.89	-0.62

Entries from the list above containing a nitro group on carbon, in the order listed:
SMILES	KCNQ2 pot	KCNQ2 pot baseline
O=C(O)c1ccccc1C(=O)c1ccc(Sc2ccc(Cl)cc2)c([N+](=O)[O-])c1	1.02	-1.03
O=C(Nc1ccccc1C(=O)NCCN1CCOCC1)c1cccc([N+](=O)[O-])c1	1.76	-0.77
CCCCN(C(=O)COC(=O)CSc1ccc([N+](=O)[O-])cc1)c1c(N)n(CCC)c(=O)[nH]c1=O	0.4	0.07

Other entries
SMILES	KCNQ2 pot	KCNQ2 pot baseline
O=C(NCCCN1CCOCC1)c1c(O)c2ccccc2[nH]c1=O	1.01	-0.84
Cc1ccc(C(C)(C)C)c(OCCCCN2CCCC2)c1	2.6	-0.03
COc1ccc(S(=O)(=O)NCc2ccc3c(c2)OCO3)cc1OC	0.15	2.14
COc1cc(/C=N/NC(=O)CCOc2ccccc2C)cc(Br)c1O	1.42	1.44
CCOC(=O)c1ccc(NC(=O)c2nc[nH]c2C(=O)N2CCN(C(=O)OC(C)(C)C)CC2)cc1	0.69	-2.4
CCCCc1c(O)nc(N2CCN(Cc3ccccc3)CC2)[nH]c1=O	0.26	-2.3
CC(C)S(=O)(=O)c1cnc(-c2ccccn2)nc1N	0.58	-0.03
COc1ccc(OC)c(NC(=O)c2nnn(CC(=O)Nc3ccc4c(c3)OCO4)c2N)c1	0.13	-0.43
O=C(NCc1ccc(F)cc1)C1CCCN1C(=O)Nc1ccc(Cl)cc1 (stereo not given)	1.11	0.01
C=CCN(c1ccccc1OC)S(=O)(=O)c1ccc(Cl)c(C(=O)Nc2ccc(N3CCOCC3)cc2)c1	0.57	-0.05
Cc1cccc(NC(=O)CN2C(=O)S/C(=C\c3cc(C)n(C)c3C)C2=O)c1	0.57	-0.37
N#Cc1ccc(CSc2nnc(NC(=O)C3CCCO3)s2)cc1 (stereo not given)	0.4	1.06
CCc1ccc2c(c1)cc(C)c1nnc(SCC(=O)Nc3cc(OC)c(OC)cc3C(=O)O)n12	1.15	-0.76
O=C(C[n+]1cccc(/C=N/O)c1)N(Cc1ccccc1)Cc1ccccc1	0.2	2.6
CCN(CC)C(=O)CN(C#N)c1nc(C)cc(C)n1	0.71	-0.37
NS(=O)(=O)c1ccc(CCNC(=O)c2ccc3ccccc3n2)cc1	1.54	-0.07
Cc1oc(-c2ccccc2F)nc1CSCC(=O)NC1CCC(C)CC1 (stereo not given)	0.64	-1.08
Cc1cc(C)c(C(=O)O)c(Cl)n1	0.01	-1.07
O=C(Cc1ccccc1)NNC1CC(=O)N(c2ccccc2)C1=O (stereo not given)	0.18	0.01
Cc1ccc(NC(=O)CNc2cccc(S(=O)(=O)N3CCCCC3)c2)cc1F	3.68	-2.28
Cc1oc2c(c1C(=O)NCCO)CCCC2	1.02	0.23
CC(=O)Nc1ccc(NC(=O)Cn2cnc3c(cnn3C(C)(C)C)c2=O)cc1	1.35	0.91
O=c1[nH]c(/C=C\c2cccc(F)c2)nc(O)c1[N+](=O)[O-]	0.78	-1.84
C=CCN1C(=O)CSc2ccc(C(=O)NC(C)c3ccccc3)cc21 (stereo not given)	0.53	0.42
COc1cc(NS(C)(=O)=O)cc(OC)c1OC	1.57	0.02
Cc1cc(=O)oc2cc(OCC3CC(c4ccc(Cl)cc4)=NO3)ccc12 (stereo not given)	0.06	-0.35
O=C(CSc1nnc(COc2cccc3cccnc23)o1)c1ccc(F)cc1	0.84	-0.05
COc1cc2c(cc1OC)C(c1cccs1)N(C(=O)c1ccncc1)CC2 (stereo not given)	0.16	-1.39
CC(=O)Nc1ccc(S(=O)(=O)NCCC(=O)OCC(=O)c2ccc(F)c(F)c2)cc1	0.79	-1.28
CCCOC(=O)c1ccc(S(N)(=O)=O)o1	1.19	0.91
Cc1ccc(NS(=O)(=O)c2cccc(C(=O)N3CCCCCCC3)c2)cc1	0.02	0.01
Cc1ccc2[nH]c(CCN(C)C)c(CC#N)c2c1	0.07	0.24
CC1=C(C(=O)O)N2C(=O)C(NC(=O)c3ccccc3Cl)C2SC1 (stereo not given)	12.6*	0.46*
C=CCNc1nc2ccccc2nc1NS(=O)(=O)c1cccs1	0.62	-1.54
Cc1ccc(NC(=O)COC(=O)COc2cccc3c2OC(C)(C)C3)c(C)c1	0.34	0.19
CCNc1nc(NCC)n2c(SCC(=O)NCC3CCCCC3)nnc2n1	0.18	-0.04
Cc1ccc(NC(=O)c2oc3ccc(S(=O)(=O)N4CCC5(CC4)OCCO5)cc3c2C)cc1C	0.8	-0.03
CCn1cc(C2=NC(C)(C)CO2)c2ccccc21	0.26	-0.16
Cc1ccc(SCc2ccc(C(=O)Nc3cc([N+](=O)[O-])ccc3C)cc2)cc1	0.64	-0.02
COc1ccc(CN(CC(=O)NCc2ccc3c(c2)OCO3)C(=O)c2csnn2)cc1	1.77	-0.69
CCn1c(SCC(=O)Nc2ccc3c(c2)OCO3)nnc1-c1cnccn1	0.65	-0.67
C#CC1(O)CC(C)N(C)C(C)C1 (stereo not given)	0.01	-0.67
Cn1cccc1CNC(=O)Nc1ccc(Cl)c(Cl)c1	1.22	-0.83
[2H]C(CCOS(N)(=O)=O)c1ccc(C(C)(C)C)cc1 (stereo not given)	0.86	-0.02
CC(=O)Nc1cccc(C(=O)OC(C)C(=O)NCc2ccc3c(c2)OCO3)c1 (stereo not given)	0.22	0.05
O=C1CCC([N+](=O)[O-])C(c2ccc(Cl)cc2Cl)N1 (stereo not given)	0.11	0
Fc1ccc(Cl)cc1/C=N/n1cnnc1SCc1ccccc1	1.95	0.23
N#Cc1c(-c2ccc([N+](=O)[O-])cc2)nc2n(c1=O)CCS2	1.45	0.14
COc1cccc(C2CC(c3ccc(Cl)cc3)Nc3nc(N)nn32)c1 (stereo not given)	0.33	-1.24
CCn1ncc(Cl)c1C(=O)NC(=S)Nc1c(C)cc(C)cc1[N+](=O)[O-]	2.76	-0.01
CCOc1cc(C(=O)OCc2ccc(C(=O)OC)o2)cc(Br)c1OC	0.69	0.35
O=C(c1cc2ncccn2n1)N1CCc2c([nH]c3ccccc23)C1c1ccccc1F (stereo not given)	3	0.32
Cc1ccc(Sc2c(C)nn(C(=O)CNS(=O)(=O)c3ccc(F)cc3)c2C)cc1	0.03	0.58
COc1ccc(F)cc1S(=O)(=O)N1CCC2(CC1)OCCN2S(=O)(=O)c1cccs1	0.02	0.91
COc1ccccc1CC(=O)Nc1c[nH]c(=O)[nH]c1=O	0.73	-0.08
N/C(=N\OC(=O)c1ccc([N+](=O)[O-])cc1)c1cccnc1	1.34	3.35
